KCNQ2 block: KCNQ2 potassium channel inhibitors, primary screen, cell-based, CHO-K1, FluxOR thallium flux, B-score (AID 2156). Potassium voltage-gated channel subfamily KQT member 2 (Rattus norvegicus), O88943. 20 min; stronger effect = lower value; only compounds with negative scores are shown here; some inactives read as strong as hits. B-score at 10 µM. 310,000 compounds, 1.1% hits;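 active means fluorescence ratio B-score at most minus 3 library SDs, with starting brightness B-score within 2 library SDs, cut at about -5.5 in these data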
Target sequence (O88943 whole entry, looked up): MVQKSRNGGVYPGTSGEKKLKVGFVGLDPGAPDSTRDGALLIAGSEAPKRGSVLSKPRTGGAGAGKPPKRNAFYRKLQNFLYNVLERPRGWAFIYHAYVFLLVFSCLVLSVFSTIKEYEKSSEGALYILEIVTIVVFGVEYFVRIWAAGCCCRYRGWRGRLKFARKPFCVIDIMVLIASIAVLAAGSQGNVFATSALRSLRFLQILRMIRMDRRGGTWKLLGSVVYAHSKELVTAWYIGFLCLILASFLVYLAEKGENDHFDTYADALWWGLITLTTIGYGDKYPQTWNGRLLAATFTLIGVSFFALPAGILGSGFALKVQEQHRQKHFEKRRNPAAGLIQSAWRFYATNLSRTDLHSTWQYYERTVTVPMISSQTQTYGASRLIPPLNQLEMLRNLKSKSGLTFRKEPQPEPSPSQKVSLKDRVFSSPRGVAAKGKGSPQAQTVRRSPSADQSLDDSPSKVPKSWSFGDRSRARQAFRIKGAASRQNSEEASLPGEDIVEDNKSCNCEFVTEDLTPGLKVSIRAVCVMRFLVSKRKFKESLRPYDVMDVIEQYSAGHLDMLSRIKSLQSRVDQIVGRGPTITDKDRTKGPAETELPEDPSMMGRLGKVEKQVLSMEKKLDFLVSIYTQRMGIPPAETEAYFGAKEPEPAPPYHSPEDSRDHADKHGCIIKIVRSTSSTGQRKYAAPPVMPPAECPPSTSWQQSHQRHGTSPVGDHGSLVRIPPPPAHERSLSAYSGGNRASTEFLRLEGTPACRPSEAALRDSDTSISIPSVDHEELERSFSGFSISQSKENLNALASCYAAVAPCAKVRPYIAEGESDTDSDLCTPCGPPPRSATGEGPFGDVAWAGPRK
KCNQ2 block baseline: second read-out of KCNQ2 block, no call of its own (marks repeat the call); B-score; measured here: initial fluorescence intensity artifact check;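 brightness before thallium and not channel activity; 0 = typical well and far values either way flag optical interference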
* hit, by the source's call; i = inactive.

Start of the data: the first four compounds, ahead of the listing:
SMILES	KCNQ2 block	KCNQ2 block baseline
CCc1cccc(N=c2c([N+](=O)[O-])nn(-c3ccc4c(c3)OCCO4)n2O)c1	i	-2.8
Cc1ccc(C2=NNC(=O)C(P(=O)(c3ccccc3)c3ccccc3)C2)cc1 (configuration not stated)	i	-0.59
O=C(/C(C=Nc1ccc(F)cc1)=C(/O)c1ccco1)C(F)(F)F	i	2.1
Cc1ccc(S(=O)(=O)N(C)C)cc1NS(=O)(=O)c1ccc(Cl)s1	i	-2.1

Main list, from the first entry:
SMILES	KCNQ2 block	KCNQ2 block baseline
CCc1cccc(N=c2c([N+](=O)[O-])nn(-c3ccc4c(c3)OCCO4)n2O)c1	i	-2.8
Cc1ccc(C2=NNC(=O)C(P(=O)(c3ccccc3)c3ccccc3)C2)cc1 (configuration not stated)	i	-0.59
O=C(/C(C=Nc1ccc(F)cc1)=C(/O)c1ccco1)C(F)(F)F	i	2.1
Cc1ccc(S(=O)(=O)N(C)C)cc1NS(=O)(=O)c1ccc(Cl)s1	i	-2.1
CCN1CCN(c2ncnc3c2nnn3Cc2ccccc2)CC1	i	-0.76
CC(=O)N1N=C(c2cccc([N+](=O)[O-])c2)OC1(C)c1cccs1 (configuration not stated)	i	0.87
CCCC/C=C/[C@H](c1ccccc1)[C@H](CO)Cc1cccnc1	-5.7*	-0.26*
COc1ccc(N2CCN(C(c3cccs3)C(C)NC(=O)c3ccc4c(c3)OCO4)CC2)cc1 (configuration not stated)	i	0.3
CN(c1ccc(OCC(=O)Nc2nc(-c3ccccc3)cs2)cc1)S(=O)(=O)c1ccc(F)cc1	i	-0.58
Clc1ccccc1-c1nn2c(COc3ccccc3)nnc2s1	i	-1.6
Cc1oc(-c2cccs2)nc1CN1CCN(CC(C)C)C(CCO)C1 (configuration not stated)	i	2.4
CN(CC(=O)Nc1cccc(F)c1)CC(=O)Nc1ccccc1Oc1ccccc1	i	3.1
O=C(NCc1ccccn1)c1ccc2ccccc2n1	i	1.3
CCn1c(Cc2ccc(OC)cc2)nc2ccccc21	i	-1.1
CCOc1ccc(/C=C2/Sc3ccc(C(=O)N4CCN(C(=O)c5ccco5)CC4)cc3N(C)C2=O)cc1OC	i	-0.33
CCOc1ccc(NC(=O)CN(C)C(=O)C2(c3ccccc3)CC2)cc1OCC	i	-0.4
COC(=O)c1ccccc1NC(=S)NC(=O)C1CC1	i	1.2
COc1ccc(S(=O)(=O)Nc2nc3ccccc3nc2NCC2CCCO2)cc1 (configuration not stated)	i	0.82
COC(=O)Cn1cc(C(=O)C(F)(F)F)c2ccccc21	i	0.15
Cc1ccc(-c2onc3ccc(Cl)cc23)cc1	i	0.53
COc1ccc(CN(C)C(=O)c2cc(-c3ccc(OC)c(OC)c3)nc3ccccc23)c(OC)c1	i	-0.6
O=C(c1ccc(Br)cc1)N1CCC(C(=O)N2CCN(Cc3ccccc3)CC2)CC1	i	-3.6
COc1ccc(S(=O)(=O)N2CCOC23CCN(S(=O)(=O)c2cccs2)CC3)cc1	i	-0.09
Brc1ccc2c(c1)CN1CCCC1=N2	i	-0.67
Cc1noc(C(=O)Nc2c(C)n(C)n(-c3ccccc3)c2=O)c1Cl	i	0.71
Cc1ccccc1C1c2[nH]c3ccccc3c2CCN1CCCn1cccn1 (configuration not stated)	i	0.89
CC(C)C[C@H](NC(=O)[C@H](Cc1ccccc1)n1c(=O)[nH]c2ccccc2c1=O)C(=O)N1CCC(C(=O)O)CC1	i	-0.4
COc1ccccc1N1CCN(S(=O)(=O)CCNC(=O)c2ccc(OC(C)C)cc2)CC1	i	-0.13
COc1ccc(NS(=O)(=O)c2ccc(Oc3cccc(C(=O)O)c3)cc2)cc1	i	-1.5
CC1=NN(C)C(=O)C1Cc1c(F)cccc1Cl (configuration not stated)	i	0.75
CC(=O)Oc1ccc2occ(-c3ccccc3)c2c1	i	0.05
COC(=O)C(CCSC)NC(=O)CNC(=O)C1CCCCC1 (configuration not stated)	i	0.64
C/C(N)=C(/C#N)C(=O)CSc1nnc(SCc2ccc(Cl)cc2)s1	i	0.36
COCCCN1C(=O)c2ccc(C(=O)OCC(=O)NCCc3ccccc3)cc2C1=O	i	-0.22
COc1ccc(C(=O)NC(CCSC)C(=O)N2CCCCCC2)cc1 (configuration not stated)	i	0.04
Cc1c(Cl)cnc(NC(=O)COC(=O)c2ccc3c(c2)OCO3)c1Cl	i	0.58
O=C(NCc1ccccn1)[C@H]1C[C@@H]1[C@H](NP(=O)(c1ccccc1)c1ccccc1)c1ccccc1	i	-1.1
COc1cc(/C=C/C(=O)N2C(=O)c3cccc(N)c3C2=O)cc(OC)c1OC	i	0.56
c1ccc(-c2nc(NC3CCCC3)c3ccccc3n2)cc1	i	-0.57
CCN(CC)S(=O)(=O)c1ccc(N2CCOCC2)c(NC(=O)C2CCCO2)c1 (configuration not stated)	i	1.5
CCCn1c(=O)c(C(=O)NNC(=O)Cc2ccccc2)c(O)c2ccccc21	i	1.4
COC(=O)c1cc([N+](=O)[O-])c(-n2cncn2)c([N+](=O)[O-])c1	i	0.46
O=C(CNc1cccc2ccccc12)N/N=C/C=C/c1ccco1	i	-0.84
S=c1[nH]ncn1NCc1ccc(Cl)cc1Cl	i	0.66
Cc1cccc(C)c1NC(=O)COC(=O)CCc1ccc(S(=O)(=O)N2CCCCC2)cc1	i	1.5
COc1cccc(-n2nc3c(-n4ncc(C#N)c4N)nnc(C)c3c2C)c1	i	-2.8
Fc1cccc(/C=N/Nc2ncnc3nc[nH]c23)c1	i	-0.35
Cc1cc(C)n(-c2nc3ccccc3nc2N2CCN(C(=O)c3ccc(Cl)cc3)CC2)n1	-8.4*	-1.4*
Cc1cc(Cl)ccc1NC(=O)CCC(=O)N/N=C/c1cccnc1	i	0.01
COCC(=O)N/N=C/c1c(C)[nH]n(-c2ccccc2)c1=O	i	-0.14
S=c1[nH]ccn1-c1c(Cl)cccc1Cl	i	-0.93
COc1ccc(-n2sc3c(c2=S)-c2cc(OC)ccc2NC3(C)C)cc1	i	1.6
CCNS(=O)(=O)c1ccc(CCC(=O)N2CCN(c3ccccc3F)CC2)cc1	i	1.6
Cc1ccsc1C(=O)NNC(=O)c1csc(N2CCOCC2)n1	i	0.25
COC(=O)/C(=N\OCc1ccc(C#N)cc1)c1c(C)nn(C)c1C	i	-0.11
CC1Cc2cc(S(=O)(=O)NCCC(=O)N(C)Cc3ccccc3)ccc2N1C(=O)C1CC1 (configuration not stated)	i	-1.4
Cc1ccc(NC(=O)NNC(=O)c2ccc3c(c2)NC(=O)C(C)(C)O3)cc1	i	0.09
CCOc1ccccc1N1CCN(CC(=O)Nc2ncc(C)s2)CC1	i	0.74
CCN(CC(=O)NCC(=O)Nc1ccc(Br)cc1C)Cc1ccccc1	i	1
COC(=O)c1ccc(NC(=O)CN(C)Cc2cccc(F)c2)cc1	i	-2.5

Fetched one by one from the entries so far, 2 records:
SMILES	KCNQ2 block	KCNQ2 block baseline
COc1ccc(S(=O)(=O)N2CCOC23CCN(S(=O)(=O)c2cccs2)CC3)cc1	i	-0.09
COCCCN1C(=O)c2ccc(C(=O)OCC(=O)NCCc3ccccc3)cc2C1=O	i	-0.22

Continued:
SMILES	KCNQ2 block	KCNQ2 block baseline
COc1ccc2c(c1)c1nnc(SCC(=O)N3C(C)CCCC3C)nc1n2C (configuration not stated)	i	2.3
Cc1c(OC(C)C(=O)NCc2cccnc2)ccc2c3c(c(=O)oc12)CCCC3 (configuration not stated)	i	-1.7
Cc1ccc(NC(=O)CCn2c(=O)c3cccn3c3ccccc32)cc1C	i	-0.08
O=[N+]([O-])c1cn(Cc2ccc(Cl)cc2)cn1	i	0.78
Cc1ccc(NC(=O)COCC(=O)Nc2ccc(C)cc2)cc1	i	-0.65
COc1ccc(CC(=O)NCCS(=O)(=O)N2CCN(c3ccccc3OC)CC2)cc1	i	0.15
O=C(NCCCN1CCCC1)c1ccc(CSCc2cccc(Cl)c2)o1	i	-0.2
COc1ccc(N2CCN(C(=O)[C@@H](NC(=O)c3ccccc3Cl)C(C)C)CC2)cc1	i	0.04
CC1CCCCC1NC1=NCCCS1 (configuration not stated)	i	1.6
O=C(N/N=C/c1ccccn1)c1ccc(Cl)cc1	i	1.1
Cc1nn(Cc2ccccc2)c(N)c1C#N	i	0.11
COc1cc(NC(=S)NCc2cccnc2)cc(OC)c1	-7.4*	1.6*
COc1ccc(NC(=O)C2CCC(CNc3c(N4CCC(C)CC4)c(=O)c3=O)CC2)cc1OC (configuration not stated)	i	0.11
CCc1ccc(N2CC34C=CC(O3)C(C(=O)OC)C4C2=O)cc1 (configuration not stated)	i	0.81
CCCn1c(SCC(=O)NC2CC2)nnc1-c1cccs1	i	0.41
O=C(Nc1ccc(F)cc1)c1ccc(S(=O)(=O)N2CCCC2)cc1	i	0.09
C/C(N)=C(/C#N)C(=O)CSc1nnc(Nc2ccccc2C)s1	i	-0.29
COC(=O)CCC(=O)OC1(C)C(=O)C=C2C=C(C3CC3)N(Cc3ccccc3)C=C2C1=O (configuration not stated)	i	2.4
CCOC(=O)C1CCCN(S(=O)(=O)c2ccc3ccccc3c2)C1 (configuration not stated)	i	-1.3
O=C(NCc1csc(-c2cccs2)n1)Nc1ccc(C(F)(F)F)cc1	i	-0.03

Sorted by formula weight (largest number first): 4 of the compounds above
SMILES	KCNQ2 block	KCNQ2 block baseline
O=C(NCCCN1CCCC1)c1ccc(CSCc2cccc(Cl)c2)o1	i	-0.2
CCOC(=O)C1CCCN(S(=O)(=O)c2ccc3ccccc3c2)C1 (configuration not stated)	i	-1.3
CCc1ccc(N2CC34C=CC(O3)C(C(=O)OC)C4C2=O)cc1 (configuration not stated)	i	0.81
CC1CCCCC1NC1=NCCCS1 (configuration not stated)	i	1.6

In the list so far, 3 have bromine.
SMILES	KCNQ2 block	KCNQ2 block baseline
O=C(c1ccc(Br)cc1)N1CCC(C(=O)N2CCN(Cc3ccccc3)CC2)CC1	i	-3.6
Brc1ccc2c(c1)CN1CCCC1=N2	i	-0.67
CCN(CC(=O)NCC(=O)Nc1ccc(Br)cc1C)Cc1ccccc1	i	1

Following part.
SMILES	KCNQ2 block	KCNQ2 block baseline
CSc1nc(Cl)c(Cc2ccc(OC(C)C)cc2)c(N(C)C)n1	-6*	-1.9*
Cc1ccccc1CNC(=O)c1ccccc1C	i	1.8
O=C(CCNC(=O)C1CCN(S(=O)(=O)c2ccc(F)cc2)CC1)NCc1ccccc1Cl	i	-2
CCCOC(=O)c1ccc(OCC(O)CN2CCN(C(=O)c3ccccc3)CC2)cc1 (configuration not stated)	i	0.17
C/C(CC(=O)NC12CC3CC(CC(C3)C1)C2)=N\NC(=O)c1ccc(F)cc1	i	0.23
CCN(C(=O)CN1C(=O)/C(=C/c2ccccc2F)SC1=S)C1CCS(=O)(=O)C1 (configuration not stated)	i	1.3
O=C(CNC(=O)C1COc2ccccc2O1)N/N=C/c1ccc(O)cc1O (configuration not stated)	i	-2.5
Cc1ccc(-n2nc3c(=O)n(CCCC(=O)NCc4ccc(C)o4)nc(C)c3c2C)cc1	i	-1.4
Cc1cccc(-c2cc3nc(-c4ccccc4)cc(N4CCC5(CC4)OCCO5)n3n2)c1	-8.1*	2*
Cc1cc(Br)cc(C)c1NC(=O)c1ccc(C#N)cc1F	i	3.1
CC(=O)N1CCN(c2ccc(Nc3nc(C)nc4c3oc3ccccc34)cc2)CC1	i	0.81
COc1cccc(Nc2nnc(SCC(=O)Nc3sccc3C(N)=O)s2)c1	i	0.2
Cc1ccc(S(=O)(=O)Cc2c(C)noc2C)cc1	i	-1.1
Cc1ccc(S(=O)(=O)N2CCOCC2)cc1NC(=O)CSc1nccn1C	i	0.19
COc1ccc(CCNC(=O)c2sc3ccccc3c2Cl)cc1OC	i	0.96
CCc1nc2ccccc2n1Cc1ccccc1F	i	0.01
CCOC(=O)c1cc2c(=O)n3cccc(C)c3nc2n(CCCOC)c1=NC(=O)c1cccnc1	i	1.3
Cc1ccc(C(CNC(=O)Nc2ccccc2)N2CCN(C)CC2)cc1 (configuration not stated)	i	0.09
Cc1cccc(C)c1NC(=O)CCCSc1nnc(-c2ccc(Cl)cc2)n1-c1ccccc1	i	1.4
O=C(CSc1nc2ccccc2o1)N1c2ccccc2Sc2ccccc21	i	-0.25
COc1cc(NS(=O)(=O)c2ccc(F)cc2)c(C(=O)O)cc1OC	i	-0.75
CC(=O)Nc1ccc(NC(=O)CN(c2ccc([N+](=O)[O-])cc2)S(=O)(=O)c2ccccc2)cc1	i	-0.06
COc1ccc(CN(C)C(=O)c2ccc(NS(=O)(=O)c3ccc(F)cc3)cc2)c(OC)c1OC	i	-2
COc1cccc(-c2c[nH]c(=O)[nH]c2=O)c1	i	0.53
O=C(NC1CCCCC1)C1Cc2ccccc2CN1S(=O)(=O)c1ccc(F)cc1 (configuration not stated)	i	-0.75
CCCOC(=O)CSc1nnc(-c2cc(OC)c(OC)c(OC)c2)o1	i	1
COc1cc(NC(=O)COc2ccccc2)c(OC)cc1NC(C)=O	i	-1.2
CN(C)c1ccc(/C=N/Nc2cccc(C(=O)O)c2)cc1	i	0.01
CCn1c(SCc2nc(N)nc(N3CCCCC3)n2)nc2c1c(=O)n(C)c(=O)n2C	i	0.02
Cc1ccc(CNC(=O)COc2ccccc2-c2ccccc2)cc1	i	1.7
CN1CCCN(C(=O)CC2(CC(=O)O)CCCC2)CC1	i	1.2
Cc1ccc(C(=O)N2CCCC(CCC(=O)N3CCN(c4ccccn4)CC3)C2)s1 (configuration not stated)	i	1.9
COC(=O)c1ccc(OCC2c3cc(OC)c(OC)cc3CCN2C(=O)c2ccco2)cc1 (configuration not stated)	i	0.02
O=C(O)C1C2C=CC(C2)C1C(=O)NCc1ccc(Cl)cc1Cl (configuration not stated)	i	-0.41
COc1ccc(CC(=O)NNC(=S)Nc2ccc(Br)cc2)cc1	i	1.3
Cc1ccc(S(=O)(=O)N(C)c2ccc(C(=O)N3CCOCC3)cc2)cc1	i	2.5

High-throughput results: PubChem BioAssay, Johns Hopkins Ion Channel Center

Only part of the results is shown (hit frequency here may not be typical).
